Marburg entry inh: qHTS for inhibitors of binding or entry into cells for Marburg Virus | AID 540276, 2011 | Potency, µM (highest dose often 37.8 µM), for inactives: at the top dose activity change, negative = inhibition, actives largely listed as inhibitors | Marburg virus pseudotyped entry inhibition, cell reporter; control for the full effect not named in the record; about a third of the inactives were read at about 46 µM | 300,000 tested, 1.8% active; active = well fitted inhibition curve with a large enough effect; inconclusive = small, poorly fitted or top-dose-only effect, or effect the other way; inactive = flat fitted curve, though single readings scatter; tested in HEK293 cells; about a fifth of its hits are not listed in these tables; also: % is scaled to controls: 0 for no effect and ±100 for the full control effect; luciferase read-out
Cruzain inh noDet: qHTS Assay for Promiscuous and Specific Inhibitors of Cruzain (without detergent); Cruzipain (Trypanosoma cruzi), P25779; purified cruzain, Z-FR-AMC fluorescence, no detergent; Potency, µM, for the others: max response, negative = inhibition, hits mostly inhibitors; 200,000 tested, 2.3% active; AID 1476, 2009;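 also: plate controls were enzyme without inhibitor for no effect and buffer without enzyme for full effect; nearly all actives have a fitted effect of over 40% in size; top concentration of the series not given in the record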
Target sequence (P25779 123-467 limits assumed): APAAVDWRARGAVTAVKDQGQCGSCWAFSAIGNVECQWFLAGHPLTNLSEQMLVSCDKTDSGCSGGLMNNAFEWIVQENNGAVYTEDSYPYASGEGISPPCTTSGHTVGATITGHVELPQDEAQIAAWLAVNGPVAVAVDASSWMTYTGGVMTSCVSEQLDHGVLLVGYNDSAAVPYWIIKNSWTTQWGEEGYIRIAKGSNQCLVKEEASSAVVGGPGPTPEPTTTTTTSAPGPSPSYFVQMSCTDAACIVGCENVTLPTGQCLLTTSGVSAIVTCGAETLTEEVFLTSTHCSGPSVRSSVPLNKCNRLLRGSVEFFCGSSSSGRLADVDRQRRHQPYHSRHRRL
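Purified cruzain at 1.5 nM, pre-incubated 15 min with compound at room temperature in 100 mM sodium acetate pH 5.5, 5 mM DTT, 0.00005% Triton X-100. Reaction started with 2 uM Z-FR-AMC; AMC fluorescence increase over 60 s gives rate.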
2A StopGo: High Throughput Screening for Foot and Mouth Disease Virus Antivirals. human cells with a luciferase reporter of 2A StopGo recoding; control for the full effect not named in the record. Potency, µM (titrated, usually from 57.9 µM), for inactives: at the highest dose signal change, negative = less light. 410,000 tested, 1.2% active. AID 1159524, 2015; active = well fitted falling curve with a large enough effect; inconclusive = small, poorly fitted or top-dose-only effect; inactive = no such curve, though single readings can be large or run the other way; tested in HEK293T cells; also: % is scaled to controls: 0 for no effect and ±100 for the full control effect; nearly all actives have a fitted effect of over 45% in size; luciferase light after 4 h
RE007 growth inh: qHTS Assay for Inhibitors of the HIV-1 protein Vpr; S. pombe RE007 Vpr strain, BacTiter-Glo ATP luminescence, 24 h; control for the full effect not named in the record; Potency, µM (series often up to 92.2 µM), without a hit: top-dose activity change, negative = less growth; 360,000 tested, 0.21% active; AID 651644, 2012; active = well fitted falling curve with a large enough effect; inconclusive = small, poorly fitted or top-dose-only effect; inactive = no such curve, though single readings can be large or run the other way;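 also: % is scaled to controls: 0 for no effect and ±100 for the full control effect; nearly all actives have a fitted effect of over 50% in size; the assay follows cell death caused by Vpr and the record does not say whether a fall means rescue or toxicity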
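Fission yeast RE007 carrying one integrated HIV-1 vpr copy, seeded at OD 0.01 in PMG+AL medium with 23 nL pinned compound. Grown 24 h at 30 degrees; viability read by BacTiter-Glo luminescence after 5 min.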
Lassa entry inh: qHTS for Inhibitors of binding or entry into cells for Lassa Virus. AID 540256, 2011. Lassa virus pseudotype entry inhibition, cell reporter; control for the full effect not named in the record. 300,000 tested, 1.2% active. Potency, µM (top dose mostly 37.9 µM), without a hit: at the top dose activity change, negative = inhibition, hits mostly inhibitors; active means well fitted inhibition curve with a large enough effect; inconclusive means small, poorly fitted or top-dose-only effect, or effect the other way; inactive means flat fitted curve, though single readings scatter; tested in HEK293 cells; also: % is scaled to controls: 0 for no effect and ±100 for the full control effect; nearly all actives have a fitted effect of over 50% in size; luciferase read-out
SARS PLpro yeast: qHTS of Yeast-based Assay for SARS-CoV PLP; S. cerevisiae expressing SARS-CoV PLpro, growth rescue; control for the full effect not named in the record; 330,000 tested, 0.19% active; Potency, µM (highest dose often 32.9 µM), for the others: at the highest dose activity, positive = growth rescue; active means well fitted rising curve with a large enough effect; inconclusive means small, poorly fitted or top-dose-only effect; inactive means no such curve, though single readings can be large or run the other way; also: 0% is about no effect; nearly all actives have a fitted effect of over 55% in size; growth read by luminescence after 48 h
NS1 function inh: qHTS Assay for Inhibitors of Influenza NS1 Protein Function; S. cerevisiae slowed by influenza A NS1, growth recovery by OD600; Potency, µM (top dose mostly 46.1 µM), inactives show at the top dose activity, positive = more growth; 270,000 tested, 0.4% active; active means well fitted rising curve with a large enough effect; inconclusive means small, poorly fitted or top-dose-only effect; inactive means no such curve, though single readings can be large or run the other way; also: nearly all actives have a fitted effect of over 50% in size
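Read-out: OD600 growth recovery of NS1-expressing budding yeast. Cells grown overnight at 30C in -URA glucose medium, washed, resuspended and diluted 1:100 in 2% galactose assay medium, pH 6.0. Same strain lacking NS1 served as positive control.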
Cruzain inh Det: qHTS Assay for Promiscuous and Specific Inhibitors of Cruzain (with detergent) | 200,000 tested, 0.43% active | Cruzipain (Trypanosoma cruzi), P25779 | AID 1478, 2009 | Potency, µM, without a hit: max response, negative = inhibition, usual class: inhibitors | purified cruzain, Z-FR-AMC fluorescence, 0.01% Triton;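 also: plate controls were neutral wells for no effect and buffer without enzyme for full effect; nearly all actives have a fitted effect of over 40% in size; top concentration of the series not given in the record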
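Cruzain (1.5 nM) preincubated 15 min at RT with compound in 100 mM sodium acetate pH 5.5, 5 mM DTT, 0.01% Triton X-100. Reaction started with 2 uM Z-FR-AMC; AMC fluorescence (ex 360/em 450 nm) change over 60 s gave rate.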
The depositor's hits bear a star; ? = inconclusive; / = not tested or not shown; & = joins results of further samples; [ ] = remark or other dose. Unless noted, calls follow the shape of the dose curve; as a rule, active = well fitted curve in the direction sought with a large enough effect; inconclusive = small, poorly fitted or top-dose-only effect, or another doubt; inactive = no such curve, though single readings can be large; an effect the other way counts as inactive or inconclusive. Potency is read from the fitted curve at half-maximal effect.

SMILES | Marburg entry inh | Cruzain inh noDet | 2A StopGo | RE007 growth inh | Lassa entry inh | SARS PLpro yeast | NS1 function inh | Cruzain inh Det
CCOc1ccc(Nc2nc(NCCN3CCOCC3)nc(OC)n2)cc1 | 0% | 8% | 1% | 1% | -17% | 12% | 2% | 4.2%
O=C1N2CCSC2=NC1(NS(=O)(=O)c1ccccc1)C(F)(F)F (stereo unspecified) | 3% | 13% | -8% | 15% | 1% | -9% | -8% | 5.1%
COc1ccc(/C=C/C(=O)c2c(O)n(CCC3=CCCCC3)c(=O)[nH]c2=O)cc1 | ? | -20% | 35µM* | 2% | ? | 6% | 11% | -6.5%
Cc1cc(OCC(=O)NNC(=S)NC(=O)c2cccs2)ccc1Cl | / | / | -26% | 9% | / | 1% | 11% | /
CCOC(=O)Cn1nc(C(F)F)c(Br)c1C | 0%[46.1 µM] | / | 8% | 4% | / | 1% | / | /
Cc1ccc(NC(=O)CSc2nnc(-c3cccnc3)o2)c(C)c1 | 18% | / | -13% | 15% | 6% | -3% | / | /
O=C(/C=C/c1ccccc1)N1CCOCC1 | / | / | 15% | -7% | / | -2% | -3% | /
COc1ccc(NCC(=O)N/N=C/C=C/c2ccccc2[N+](=O)[O-])cc1 | -7% | / | 5% | 11% | -1% | -2% | / | /
Cn1c2ccccc2c(=O)c2cc(C#Cc3ccc(N)cc3)ccc21 | / | / | 23% | -4% | / | -17% | 20% | /
Cc1cc(C)cc(NC(=S)N2CC(C)OC(C)C2)c1 (stereo unspecified) | 10%[46.1 µM] | / | 32%[activator] | 15% | 10%[46.1 µM] | 2% | 6% | /
COc1cc(C(=O)N2CCCC(c3nc(-c4cccs4)no3)C2)cc(OC)c1OC (stereo unspecified) | -6%&-27% | ? | -1% | 4% | -6% | -3% | -54% | 1.0%
COc1ccc(OCCSc2nc(N)cc(N)n2)cc1 | 2% | -5% | 36%[activator] | 0% | ? | -12% | 9% | 6.6%
COc1ccc(NC(=O)C2CCCN(S(C)(=O)=O)C2)cc1OC (stereo unspecified) | / | / | 2% | 8% | / | 9% | 15% | /
CCOc1ccc(CCNC(c2cccc(Cl)c2)c2nnc(-c3ccccc3)o2)cc1OCC (stereo unspecified) | ? | 26% | -2% | / | -9%[46.1 µM] | / | / | -5.2%
CCN(CC)c1ccc(/C=N/NC(=O)c2ccc3nc[nH]c3c2)c(O)c1 | ? | / | 2% | -6% | ? | 3.2µM* | -4% | /
CCn1c(SCC(=O)NC(C)c2ccccc2)nc2ccccc21 (stereo unspecified) | 0% | 3% | -7% | -6% | 10% | -2% | 3% | 0.9%
CCOC(=O)C(Cc1ccccc1)NC(=O)CCc1c(C)nc2nc(C)nn2c1C (stereo unspecified) | -4%[46.1 µM] | -15%&9% | -14%&-3% | 1% | 27%[46.1 µM] | -4% | 4% | 2.3%&0.7%
Cc1cc2ccccc2nc1Br | 0% | 1% | 4% | 1% | 15% | 5% | ? | -3.2%
Cc1ccc(CN2CC34C=CC(O3)C(C(=O)NCc3ccco3)C4C2=O)cc1 (stereo unspecified) | -7% | 10% | -8% | 10% | 1% | 1% | ? | 0.1%
COc1cccc(C(=O)N2CCN(C3CCCCC3)CC2)c1 | -4%[46.1 µM] | / | -13% | -9% | 3%[46.1 µM] | -1% | 14% | /
CC(=O)C1=C(C)NC(=O)CC1c1ccc(F)cc1 (stereo unspecified) | -21%[46.1 µM] | / | -6% | 3% | 3% | 0% | 4% | /
COC(=O)c1sccc1NC(=O)Nc1ccc(OC)cc1 | 16%[46.1 µM] | / | 24% | ? | 12%[46.1 µM] | -15% | -43% | /
COc1cc(CCC(=O)NCc2ccc(F)cc2)cc(OC)c1OC | -2% | / | -6% | -28% | 21% | 1% | -1% | /
O=C(COC(=O)Cc1c(F)cccc1Cl)NC(=O)c1ccccc1 | 15% | / | 27% | -3% | -5% | 5% | -7% | /
C/C(=N\NC(=O)CC1N=C(Cc2ccccc2)NNC1=O)c1ccc(C)cc1 (stereo unspecified) | ? | -7% | -12% | -6% | ? | -1% | 17% | 0.1%
Other results follow.
SMILES | Marburg entry inh | Cruzain inh noDet | 2A StopGo | RE007 growth inh | Lassa entry inh | SARS PLpro yeast | NS1 function inh | Cruzain inh Det
COCCN1C(=O)c2[nH]nc(-c3c(C)cc(C)cc3O)c2C1c1cccc(O)c1 (stereo unspecified) | ? | -3% | -20% | / | ? | / | / | -12%
Cc1ccccc1Nc1c(-c2ccccc2)nc2ncccn12 | -14% | / | -11% | 1% | -24% | -1% | -7% | /
Cn1ccnc1SCc1cn2ccccc2n1 | -15% | -4% | 22% | -11% | ? | 0% | 2% | 2.2%
CS(=O)(=O)Nc1ccccc1C(=O)OCC(=O)NCc1cccs1 | 2% | / | -3% | 2% | -3% | -6% | / | /
CC1CN(S(=O)(=O)c2ccc(Cl)c(S(=O)(=O)N3CC(C)OC(C)C3)c2)CC(C)O1 (stereo unspecified) | ? | 18% | 3% | -6% | -17% | 2% | -7% | 5.9%
O=S(=O)(NCCS(=O)(=O)N1CCN(c2ccccc2)CC1)c1ccc(Cl)cc1 | / | -1% | 0% | / | 21%[46.1 µM] | / | / | -0.1%
O=C(CNC(=O)c1ccc(Br)cc1)OCC(=O)c1ccccc1 | 4% | / | -11% | 4% | 3% | -4% | -1% | /
COC(Cc1ccccc1N1CCCC1=O)OC | / | / | -14% | 6% | / | 10% | -9% | /
O=C(Nc1nccs1)c1c(O)c2c(n(Cc3ccco3)c1=O)CCCC2 | / | / | -13% | -19% | / | -2% | 3% | /
Cc1cccc2cc(COC(=O)c3cccc([N+](=O)[O-])c3)c(=O)[nH]c12 | 14%[46.1 µM] | / | -1% | 3% | 21%[46.1 µM] | -2% | -4% | /
Cc1ccccc1Nc1nc(N)nc(COC(=O)c2ccccc2)n1 | 3% | -3% | 17% | 6% | ? | 5% | -6% | -1.9%
Nc1cc(=O)[nH]c(SCC(=O)Nc2ccc(F)c(Cl)c2)n1 | -12% | 8% | -8% | 1% | 0% | -7% | 4% | -12%
CCOc1cc(C(=O)N2CCC(CC3CC(c4ccc(Cl)cc4)=NO3)(C(=O)NCC3CCCCC3)CC2)cc(OCC)c1OCC (stereo unspecified) | / | / | -18% | -7% | / | 1% | 2% | /
CCOC(=O)c1nn(-c2ccccc2)c(=O)cc1SC(C)C | 14% | 7% | -14% | 6% | -4% | 0% | -8% | -0.9%
c1ccc2c(C[n+]3csc4ccccc43)cccc2c1 | 24% | ? | 37%[activator] | -5% | -11% | -2% | 28% | 0.8%
CCCSC1=C(C#N)C(c2ccc(O)c(OC)c2)CC(=O)N1 (stereo unspecified) | / | -3% | -14% | -5% | / | -8% | 7% | -4.0%
C/C(=N\NS(=O)(=O)c1ccc(C)cc1)c1cc2ccccc2oc1=O | 12%[46.1 µM] | / | 0% | 4% | -1% | -4% | / | /
Cc1ccc(-c2nnc(Nc3ccc(S(N)(=O)=O)cc3)c3ccccc23)cc1S(=O)(=O)N1CCCCC1 | / | -9% | 0% | / | -8%[46.1 µM] | / | / | 0.8%
Cc1ccc(NC(=O)COc2ccc(/C=C3/SC(=Nc4ccccc4)N(Cc4cccnc4)C3=O)cc2)cc1 | -20% | ? | -16% | -8% | -17% | -2% | 14% | 1.7%
c1ccc2c(c1)CCCc1cc(NCCN3CCOCC3)nnc1-2 | / | -5% | -17% | -1%[18.4 µM] | / | / | / | -2.0%
COc1ccc(-c2nc(C(N)=O)c3c(n2)n(-c2ccccc2OC)c(=O)n3C)c(OC)c1 | / | 3% | -12% | / | -27%[46.1 µM] | / | / | -3.6%
CCO[C@H]1OC(C(=O)NC2CC2)=C[C@@H](c2ccc(C(F)(F)F)cc2)[C@@H]1CCCO | / | / | -21% | 2% | / | 0% | 3% | /
CCOC(=O)c1c(C)[nH]c(C)c1C(=O)COC(=O)COc1ccc(Cl)c(C)c1 | ? | / | 12% | 3% | -5% | 0% | / | /
CCS(=O)(=O)N1CCN(C(=O)CCC2CCCC2)CC1 | ? | 11% | -3% | -2% | 5% | -15% | 1% | -1.3%
Cc1cc(C)nc(Nc2ncc(O)n2-c2ccc(C)c(C)c2)n1 | 18% | 2% | 2% | -21% | 8% | 3% | -10% | 4.0%
(next part)
SMILES | Marburg entry inh | Cruzain inh noDet | 2A StopGo | RE007 growth inh | Lassa entry inh | SARS PLpro yeast | NS1 function inh | Cruzain inh Det
COc1ccc(S(=O)(=O)NCC(=O)Nc2ccc3c(c2)OCCO3)cc1OC | -13%[46.1 µM] | / | 19% | 1% | -5% | 0% | 24% | /
CCC(Cn1nnc2ccccc2c1=O)NC(=O)Nc1cc(C)cc(C)c1 (stereo unspecified) | 0%[46.1 µM] | -15% | 7% | / | -24%[46.1 µM] | / | / | -1.4%
CCN1C(=O)CCC(C(=O)O)C1c1ccc(OC)cc1 (stereo unspecified) | 12%&12%[46.1 µM] | / | 7% | -1% | 3% | 1% | -2% | /
CC(C)N1C(=O)CC2(CC[N+](C)(CCOC(=O)C(c3ccccc3)c3ccccc3)CC2)C1=O (stereo unspecified) | 6% | 5% | -19% | 63% | ? | 3% | 11% | 4.3%
CCn1c(SC(C)C)nnc1-c1c[nH]c2ccccc12 | / | 7% | -9% | 9% | / | 3% | -8% | -2.4%
O=C(Nc1cccnc1)C(Cc1ccccc1)n1cccc1 (stereo unspecified) | / | -12% | 0% | -10% | / | 2% | -16% | -5.2%
COc1ccc(F)cc1S(=O)(=O)Nc1cccc(-c2ccc(N3CCC(C)CC3)nn2)c1 | / | -7% | -20% | / | ? | / | / | -0.8%
Cc1ccccc1CN(C)CC(=O)Nc1cccc(S(=O)(=O)N(C)c2ccccc2)c1 | ? | / | ? | -18% | / | -1% | / | /

Source: PubChem (National Center for Advancing Translational Sciences (NCATS))
